Source: PubChem BioAssay (several laboratories)
RN4220 kill: growth inhibition of S. aureus RN4220, primary screen, OD600 | 16 h | 330,000 compounds, 0.33% hits | inhibition, % (concentration not given with the values);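 active means z-score of -3 or lower and OD600 up to 0.18 on both plates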;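 further: plate controls were untreated cells for no effect and reference antibiotic for full effect; stock transfer was 100 nL into about 80 µL; one replicate is shown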
PrP UTR inh: inhibition of PrP 5' UTR reporter expression. cell-based PrP 5' UTR mRNA reporter, plate reader. inhibition, % (no concentration beside the values). 340,000 compounds, 0.35% hits. AID 488862, 2010;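 active means every replicate at 50% or more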;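 further: 0 = median of the neutral control wells; tested in H4 reporter cells; numbers are from one replicate; inactives centre near -14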
Mtb hypoxia inh: PubChem AID 1159583. fluorescence inhibition, % (concentration not given with the values). 300,000 compounds, 0.1% hits. M. tuberculosis hypoxia-regulated fluorescent reporter, fluorescence;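 active means 35 to 45% if threefold the growth effect, above 45% if 1.5-fold the growth effect; inactive means the rest, general growth blockers included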;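 further: wells of about 50 µL received 100 nL stock; 0% = vehicle wells and 100% = reference inhibitor wells; whole bacteria with a GFP reporter of the hypoxia response; strong numbers were not always called active; many hits fall short of the cut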
Bead autofluor: counter-screen for toxin protease inhibitors: compound fluorescence; fluorescence intensity (no concentration beside the values); 360,000 compounds, 3.1% hits; compound autofluorescence counterscreen, microsphere flow cytometry; hits give high values;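 active means at least 3 SD above the mean of all compounds, about 16000 in these data; inconclusive means too few beads counted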;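 further: 100 nL of 1 mM stock went into each well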
ugtP null kill: growth inhibition of ugtP-null S. aureus, primary screen, RN4220 ugtP deletion, OD600. growth inhibition, % (no concentration beside the values). 16 h; some inactives read as strong as hits. 330,000 compounds, 0.54% hits;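 active means z-score under -3 and OD600 up to 0.15 on both plates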;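 further: plate controls were untreated wells for no effect and antibiotic for full effect; wells of about 80 µL received 100 nL stock; the first replicate is given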
BJeLR lethal: MLPCN primary cell-based screen for lethality selective to Ras in HRASV12 cells | inhibition, % (concentration not given with the values) | 300,000 compounds, 0.17% hits | BJeLR (HRASV12) viability, CellTiter-Glo ATP luminescence, 48 h; reference of the scale not given here;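 active means replicate mean above 50%; inconclusive means above 50% but judged a plate artefact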;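 further: 50 nL library stock added to about 25 µL; numbers are from one replicate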
Mtb hypoxia inh growth: also measured in Mtb hypoxia inh; calls as there; growth inhibition, %; measured here: M. tuberculosis growth (absorbance);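 0% = vehicle and 100% = reference antibiotic; read after six days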
* marks the source's active call; other numbers are inactive results; u = inconclusive; x = not tested or not shown; & = joins results of further samples.

SMILES	RN4220 kill	PrP UTR inh	Mtb hypoxia inh	Mtb hypoxia inh growth	Bead autofluor	ugtP null kill	BJeLR lethal
Cn1cnnc1SCC(=O)NC1CCCC1	2.3	-21	7	11	5287	8	-2
O=C(c1ccc(-c2ccc([N+](=O)[O-])cc2)o1)N1CCCCCCC1	2.1	-9	23	23	2851	-2	x
O=C(NCc1ccco1)C1CCN(c2nnc(-n3cccc3)s2)CC1	3.3	4	5	-1	5698	12	-13
O=C(CCc1nnc2ccc(NCc3ccccc3)nn12)NCC1CCN(C2CCCC2)C1 (configuration not stated)	1.0	-13	-1	5	7291	1	14
NS(=O)(=O)c1cccc(NC(=O)CSc2nn(-c3ccccc3)c(=S)s2)c1	0.5	-7	1	0	2434	1	7
COc1cc(C(=O)NN=CC23CC[C@@H](O)CC2(O)CC[C@@H]2[C@@H]3CCC3(C)C(C4=CC(=O)OC4)CCC23O)ccc1O (some centres not stated)	-0.5	x	4	2	x	6	x
Cc1cc(C(=O)CN2CCN(CC(=O)Nc3cccc(F)c3)CC2)c(C)n1C1CC1	6.3	-12	8	3	4295	-1	x
COc1cc(OC)cc(C(=O)Nc2ccc3c(c2)n(C)c(=O)n3C)c1	-0.4	-12	3	2	3973	3	12
COc1cc(NC(=S)NCc2ccc(S(N)(=O)=O)cc2)c(OC)cc1Cl	x	-47	x	x	1947	x	-10
COc1ccccc1N1CCN(C(=O)c2ccc3c(=O)n4c(nc3c2)CCCCC4)CC1	0.7	-26	8	13	3840	5	x
NNC(=O)c1[nH]c(-c2ccccc2)cc1-c1ccccc1	2.5	-7	14	6	3799	11	8
CC1CCCCC1NC(=O)c1ccc(-n2cncn2)cc1 (configuration not stated)	3.0	-21	9	4	5421	2	x
COc1ccc(CC(=O)NCc2nnc(SCCOc3ccccc3)n2C)cc1	-5.4	-22	x	x	2339	2	-4
Cc1ccc(S(=O)(=O)N(Cc2ccccc2)c2ccccn2)cc1[N+](=O)[O-]	2.4	13	5	-2	x	12	-5
S=c1[nH]nc(C2CCCCC2)n1/N=C/C=C/c1ccccc1	x	4	x	x	22815*	x	-11
CCn1c(COc2ccc3c(c2)OCO3)nnc1SCC(=O)c1ccccc1	2.3	-18	6	8	2368	-8	2
COC(=O)N/N=C(\C)c1ccc(-n2ccnc2)cc1	x	-20	x	x	2727	x	7
Cc1cccc(N(C(=O)CCC(=O)Nc2cc(C)on2)C(C(=O)NC2CCCC2)c2ccccc2)c1 (configuration not stated)	2.3	-12	10	4	6095	2	-2
C=CCNC(=O)c1cccn1-c1ccsc1C(=O)OC	-2.6	-21	x	x	4530	1	8
COc1cc(OC)c(C(=O)Nc2ccc(C(=O)c3ccccc3)cc2)cc1OC	4.1	-33	-4	8	3313	7	5
COc1ccc(NC(=O)c2cc(-c3cccs3)on2)cc1OC	5.8	-19	6	4	15748	8	-6
O=C(O)c1cc(O)c2c(c1)[C@H]([C@H]1c3cc(C(=O)O)cc(O)c3C(=O)c3c(O[C@@H]4O[C@H](CO)[C@@H](O)[C@H](O)[C@H]4O)cccc31)c1cccc(OC3O[C@H](CO)[C@@H](O)[C@H](O)[C@H]3O)c1C2=O (some centres not stated)	x	-14	x	x	4861	x	-15
Cc1ccc(C(=O)Nc2c[nH]c(=O)[nH]c2=O)cc1	4.2	-6	6	1	3193	8	13
Cc1ccc(C(=O)C(C)OC(=O)c2cc(=O)[nH]c3ccccc23)cc1 (configuration not stated)	1.1	1	3	5	6004	-2	-14
Cc1nn(-c2cccc(C(F)(F)F)c2)c(Cl)c1C=NNc1cccc(C(=O)O)c1	7.1	x	5	-2	x	-7	x
Cc1cccc(OCC(=O)Oc2ccc(Cl)cc2)c1	2.8	-12	6	6	4007	10	3
Cc1ncc(CO)c(CNc2ccc(-c3nc4ccccc4[nH]3)cc2)c1O	2.4	-34	-7	4	3003	12	-4
c1ccc2c(-n3cnnn3)cccc2c1	-4.5	-11	-17	-11	6036	-14	-8
O=C1CC2c3ccccc3C1C1C(=O)N(Cc3ccccc3)C(=O)C21 (configuration not stated)	-1.1	-24	-2	3	4435	-3	-1
COC(=O)c1ccc(C2C(C#N)=C(N)Oc3cc(O)ccc32)cc1 (configuration not stated)	5.6	-9	11	2	2851	10	-1
Cc1ccc(NC(=S)Nc2c(C)n(C)n(-c3ccccc3)c2=O)cc1Cl	1.2	6	5	5	4651	6	14
CS(=O)(=O)N(Cc1ccc(Cl)cc1)c1ccc(C(=O)NCCSCc2ccco2)cc1	2.4	-19	15	6	10894	-12	8
COc1ccc(C(=O)N2CC3(C)C4CCC3(C)C2(C#N)C4)cc1OC (configuration not stated)	4.6	-49	14	-2	3946	3	14
CCc1nnc(NC(=O)CSc2nccn2-c2cc(C)cc(C)c2)s1	2.6	-11	3	1	4367	10	-6
Cc1ccc(NC(=O)CN2CCCN(S(=O)(=O)c3ccc(Br)s3)CC2)cc1	3.3	-18	4	7	11422	-7	-7
COc1ccc(C(=O)NC(=S)Nc2ccc3[nH]c(=O)[nH]c3c2)cc1	2.6	-13	0	-5	6163	18	4

Looked up above.
O=C1CC2c3ccccc3C1C1C(=O)N(Cc3ccccc3)C(=O)C21 (configuration not stated) – Bead autofluor = 4435
COC(=O)c1ccc(C2C(C#N)=C(N)Oc3cc(O)ccc32)cc1 (configuration not stated) – ugtP null kill = 10
c1ccc2c(-n3cnnn3)cccc2c1 – PrP UTR inh = -11

(listing goes on)
SMILES	RN4220 kill	PrP UTR inh	Mtb hypoxia inh	Mtb hypoxia inh growth	Bead autofluor	ugtP null kill	BJeLR lethal
Cc1ccc(S(=O)(=O)Nc2ccc3oc(=O)sc3c2)c(C)c1	13	15	x	x	2857	-15	-6
Cc1ccn2c(=O)nc(SCC(=O)Nc3cc(C)on3)nc2c1	3.3	-63	6	0	4538	4	-8
O=C(O)C1CCCCC1C(=O)Nc1cccc(C(=O)N2CCCCC2)c1 (configuration not stated)	-1.0	-17	-4	4	12915	-2	-12
CCOC(=O)c1ccc(NC(=S)NCCC2=CCCCC2)cc1	0.5	-34	11	10	9299	-21	4
CCCCCCCCCCCCCCCC[n+]1cccc2ccccc21	99*	10	10	1	1808	97*	x
COc1cc(C=NNC(=O)c2ccccn2)ccc1OC(=O)c1cccs1	5.5	x	10	-20	x	11	x
O=[N+]([O-])c1cccnc1N1CCN(c2ccc(F)cc2)CC1	11	-14	4	15	3850	8	-6
Cc1c(NC(=O)c2ccc(S(=O)(=O)N3CC(C)OC(C)C3)cc2)c(=O)n(-c2ccccc2)n1C (configuration not stated)	1.7	-25	1	6	2240	6	0
Cc1cc(C(=O)N/N=C/c2cc(Br)cc(Br)c2OC(=O)c2cccc(F)c2)n[nH]1	x	13	x	x	4082	x	6
Cc1cc(CSc2ccccc2)ccc1NC(=O)c1ccc(CN2CCOCC2)cc1	-0.3	-33	2	8	2060	2	13
COc1ccc(Cn2c(=O)[nH]c3cc(C(=O)NCCCN4CCCCC4)ccc3c2=O)cc1	3.5	-17	5	7	9203	-5	x
O=C(Nc1ccccc1)c1cc2ccccc2o1	3.3	-108	x	x	2879	-3	30
COCCNC(=S)c1ccc(Br)cc1	0.5	-30	18	13	4955	0	-1
C=CCOc1cccc(C2C(C(=O)c3ccc(C)o3)=C(O)C(=O)N2c2nnc(C)s2)c1 (configuration not stated)	x	6	x	x	u	x	8
COC1OC(CO)C(N=C(C)C)C1O (configuration not stated)	0.4	2	3	2	2823	3	x
CC(C)(CNC(=O)c1ccc(Br)o1)CNC(=O)c1ccc(Br)o1	1.0	-22	13	9	5030	5	-10
Cc1ccc(C(=O)COC(=O)c2cc(Cl)ccc2O)cc1[N+](=O)[O-]	2.4	-18	5	-6	6035	1	9
CCc1c(C)nc(SCC(=O)Nc2cccc(Br)c2)[nH]c1=O	11	-17	18	9	5837	-3	0
O=[N+]([O-])c1ccccc1NCc1ccccc1Cl	-4.2	-34	9	5	4517	18	1
COc1cc(SC)ccc1C(=O)NCCOc1ccccc1Cl	6.5	-55	10	20	6082	-7	5
O=[N+]([O-])c1ccc(-c2n(-c3ccccn3)c3ccccc3[n+]2-c2ccccn2)cc1	3.1	-18	9	-8	3829	4	10
CCOc1ccccc1NC(=O)C(=O)CC(=O)c1ccc(OC)cc1	12	-22	6	-4	3881	6	6
N#CC(C(=O)NCc1ccccc1)c1nc2ccccc2nc1N1CCCC1 (configuration not stated)	-14	-9	-5	0	2673	-15	-13
COc1ccc(S(=O)(=O)N2CCOC23CCN(S(=O)(=O)c2cc(F)ccc2F)CC3)cc1	1.0	-16	3	-7	5736	-1	-4
COc1ccc(CCN=C(N)C(C)c2ccccc2)cc1OC (configuration not stated)	4.8	-17	18	-2	6681	11	0
O=C1OC(Cc2ccccc2)C(c2ccccc2)C1=O (configuration not stated)	6.5	-23	13	8	3745	3	x
OC(c1nc2ccccc2[nH]1)C(O)c1nc2ccccc2[nH]1 (configuration not stated)	-1.5	-8	12	7	3048	4	-2
CCOc1ccc(CCNC(=O)C2CCN(c3nn4c(=O)cc(C)nc4s3)CC2)cc1OCC	-18	-18	0	2	3141	-8	-2
CC1(c2ccccc2)CC(C)(C)N2C(=O)Cc3cccc1c32 (configuration not stated)	13	-11	17	14	3966	7	x
CC(C)CNC(=O)COc1ccc(Sc2ccc(OCC(=O)NCC(C)C)cc2)cc1	0.5	27	5	-1	10327	-2	15
CC12CCC(C(=O)O)(C/C1=N\O)C2(C)C (configuration not stated)	x	-23&-6	x	x	9270&3483	x	-10&3
CC1Oc2ccccc2N(CC(=O)NCCCN2CCOCC2)C1=O (configuration not stated)	0.7	-14	3	-4	5930	9	-4
CC(C)OP(=O)(c1ccc(N(C)C)cc1)C(O)c1ccncc1 (configuration not stated)	4.2	-33	8	20	24190*	-3	8
CC(c1ccccc1)N1CC(C(=O)N2CCCC(C(N)=O)C2)CC1=O (configuration not stated)	2.1	-8	4	1	7592	1	x
CC(C)c1nc(C(=O)N2CCCC(CCC(=O)N(C)CCc3ccccn3)C2)cs1 (configuration not stated)	5.2	-9	12	-2	2654	11	-2
CC(C)Cn1cnc2c1c(=O)n(CC(=O)NN)c(=O)n2Cc1ccccc1	7.1	-7	10	6	4612	9	6

Among those listed so far, 4 have a thiophene ring, fused or not:
SMILES	RN4220 kill	PrP UTR inh	Mtb hypoxia inh	Mtb hypoxia inh growth	Bead autofluor	ugtP null kill	BJeLR lethal
C=CCNC(=O)c1cccn1-c1ccsc1C(=O)OC	-2.6	-21	x	x	4530	1	8
COc1ccc(NC(=O)c2cc(-c3cccs3)on2)cc1OC	5.8	-19	6	4	15748	8	-6
Cc1ccc(NC(=O)CN2CCCN(S(=O)(=O)c3ccc(Br)s3)CC2)cc1	3.3	-18	4	7	11422	-7	-7
COc1cc(C=NNC(=O)c2ccccn2)ccc1OC(=O)c1cccs1	5.5	x	10	-20	x	11	x

(cont.)
SMILES	RN4220 kill	PrP UTR inh	Mtb hypoxia inh	Mtb hypoxia inh growth	Bead autofluor	ugtP null kill	BJeLR lethal
CN1CCN(CC(=O)Nc2ccccc2[N+](=O)[O-])CC1	5.6	-16	-5	4	2872	4	-17
COc1ccc(CCNC(=O)CCn2c(SCC(=O)N3CCCC3)nc3ccccc3c2=O)cc1OC	0.1	-19	6	-1	4940	5	1
Cn1c(=O)c(C(=O)c2ccccc2)nc2ccccc21	-2.3	-28	x	x	2379	1	-3
O=C1CCC(C(=O)NCCCn2ccnc2)N1 (configuration not stated)	2.9	-79	3	4	9151	3	-2
Cc1cc(=O)[nH]c(SCC(=O)N2c3ccccc3CC2C)n1 (configuration not stated)	x	-26	x	x	2981	x	4
COc1cccc(-c2nc(CC(=O)O)cs2)c1OC	4.1	-23	10	8	7469	5	-8
Cc1ccc(C(=O)N2CCN(S(=O)(=O)c3ccccc3[N+](=O)[O-])C2)cc1	4.4	-10	3	0	2401	-5	-8
CC(C)c1ccc(NCCC(=O)c2ccc(Br)cc2)cc1	7.2	-16	9	13	2711	8	-3
CC(C(=O)NC(C)(C)C)N(Cc1cccs1)C(=O)CCN1CCc2ccccc21 (configuration not stated)	5.8	-30	9	2	5524	2	2
CSc1ncc(C(=O)Nc2ccc(Cl)cc2)c(C)n1	4.6	-12	2	6	3705	9	-5
CCSc1ccc(-c2ccc(C)cc2)nn1	11	-39	5	12	3823	18	7
CCC(=NCCC1=CCCCC1)c1c(O)[nH]c(=O)[nH]c1=O	5.8	0	5	9	2842	4	-4

Compounds as they come, and some 4% of all compounds hit somewhere here.
